Beta2AR agonist = agonists of human beta-2 adrenergic receptor inducing internalization; P07550; Am2.2-beta2AR cells, FAP receptor internalization, flow cytometry; reference of the scale not given here; response, % (concentration not given with the values); hit rate 0.43% among 340,000; AID 504454;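 active means response above a set limit, near 3 SD of response in nonfluorescent compounds, cut at about 42% in these data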;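 further: stock transfer was 100 nL into about 11 µL; a reference agonist was the positive control; negative values mostly stem from fluorescent compounds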
Target sequence (P07550 whole entry, looked up): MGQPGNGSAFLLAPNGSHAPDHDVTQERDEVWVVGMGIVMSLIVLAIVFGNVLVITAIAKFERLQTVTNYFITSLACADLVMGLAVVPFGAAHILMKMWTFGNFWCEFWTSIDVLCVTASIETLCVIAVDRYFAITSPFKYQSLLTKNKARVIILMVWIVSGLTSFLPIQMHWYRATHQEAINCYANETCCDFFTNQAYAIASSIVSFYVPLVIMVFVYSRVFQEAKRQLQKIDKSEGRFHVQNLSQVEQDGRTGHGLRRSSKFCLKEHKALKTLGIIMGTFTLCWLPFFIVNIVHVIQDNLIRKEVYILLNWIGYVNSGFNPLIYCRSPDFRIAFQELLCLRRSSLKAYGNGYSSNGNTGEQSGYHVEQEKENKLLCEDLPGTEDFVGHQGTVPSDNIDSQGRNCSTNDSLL
Vif A3G = HIV-1 Vif–A3G interaction blockers – biochemical, TR-FRET, GST-Vif 1-94, biotin-A3G peptide, dose response retest, primary screen (AID 1117319); inhibition, %; hits with a dose series show IC50 in µM; TR-FRET GST-Vif / biotin-A3G peptide binding; higher % means a stronger effect; test concentration not given here; strong numbers were not always called active; hit rate 0.57% among 260,000;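 active means above the screen mean plus three standard deviations and confirmed in dose response; inconclusive means results disagree or hit not tested in dose response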;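 further: Vif residues 1-94 fused to GST binding biotinylated APOBEC3G peptide 110-148; 0% = full assay without inhibitor and 100% = GST in place of GST-Vif; retest series ran down from 100 µM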
ALR H2O2 inh = blocks human ALR sulfhydryl oxidase activity. purified ALR, DTT oxidation, H2O2 HRP-luminol luminescence. inhibition, % (concentration not given with the values). hit rate 3.8% among 290,000. AID 485317;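 active means mean and each replicate at 75% or more; inconclusive means only one of the two met; inactive means neither met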;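 further: stock transfer was 7.5 nL into about 7.5 µL; 0% = neutral wells and 100% = wells with inactivated enzyme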
Target sequence (P55789 whole entry, looked up): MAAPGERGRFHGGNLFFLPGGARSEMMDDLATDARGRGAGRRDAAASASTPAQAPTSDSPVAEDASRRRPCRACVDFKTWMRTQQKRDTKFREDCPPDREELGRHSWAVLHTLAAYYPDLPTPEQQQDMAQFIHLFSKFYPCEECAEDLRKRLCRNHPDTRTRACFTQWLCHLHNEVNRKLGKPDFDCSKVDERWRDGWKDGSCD
LANA-H2B inh = blocks KSHV LANA binding to histone H2A/H2B; Q9QR71; inhibition, % (test concentration not listed); hit rate 0.6% among 320,000; cell-free LANA-H2A/H2B peptide, fluorescence polarization; AID 2629; in the data active means inhibition mostly above about 10%, no sharp cut-off; inactive means mostly below about 6.7%;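 further: stock transfer was 7.5 nL into about 10 µL; 0% = median of vehicle wells and 100% = median of positive control wells; one replicate is shown; the record names a cut of 25% in any replicate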
HNF4A DNA FP = change in binding of human HNF4 alpha to DNA; activity change, % at 10 µM; hit rate 0.3% among 360,000; P41235; HNF4a-FITC DNA binding, fluorescence polarization, 1 h; in the data active means activity change above about 30%, passing the limit was not always enough;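 further: controls were the assay level and a saturating level of protein; the project sought stronger binding though the title names inhibitors; some compounds called inactive have numbers as strong as hits; positive values seem to mean higher polarization but the record does not say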
Target sequence (P41235 whole entry, looked up): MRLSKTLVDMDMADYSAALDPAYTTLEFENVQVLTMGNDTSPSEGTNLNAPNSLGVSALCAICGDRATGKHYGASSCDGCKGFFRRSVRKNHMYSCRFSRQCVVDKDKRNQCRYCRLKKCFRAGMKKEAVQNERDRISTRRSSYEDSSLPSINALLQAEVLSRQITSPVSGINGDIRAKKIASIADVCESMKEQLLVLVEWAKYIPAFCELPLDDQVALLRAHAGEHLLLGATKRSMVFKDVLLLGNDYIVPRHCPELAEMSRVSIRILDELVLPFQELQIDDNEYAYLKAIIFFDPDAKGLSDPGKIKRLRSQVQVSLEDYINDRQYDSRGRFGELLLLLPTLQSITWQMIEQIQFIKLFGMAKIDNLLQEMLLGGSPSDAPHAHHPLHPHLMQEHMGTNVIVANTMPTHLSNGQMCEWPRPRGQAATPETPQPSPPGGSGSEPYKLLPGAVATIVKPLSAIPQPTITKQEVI
RanGTP-Imp inh = inhibitors of RanGTP-importin-beta interaction, primary screen, biochemical, FRET, CFP-Ran, YFP-importin-beta, homogeneous. hit rate 1.1% among 300,000. cell-free CFP-Ran/YFP-importin-beta FRET ratio. AID 2216. inhibition, % (test concentration not listed);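 active means most replicates above 15%; inconclusive means exactly half above 15%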;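 further: 0% = DMSO wells and 100% = Ran loaded with GDP instead of GTP; wells of about 40 µL received 100 nL stock; the first replicate is given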
Calb FLC = affects C. albicans growth with fluconazole. C. albicans CaCi-2 (fluconazole-resistant clinical isolate) + fluconazole, Alamar Blue growth, 48 h. growth inhibition, % (test concentration not listed). hit rate 0.57% among 300,000;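 active means most replicates above 75%; inconclusive means exactly half above 75%; inactive means most below 75%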;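 further: all wells also contain fluconazole at 8 µg/ml as a sub-toxic cotreatment; 0% = median of DMSO wells and 100% = median of geldanamycin control wells; wells of about 8 µL received 7.5 nL stock; the first replicate is given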
* hit, by the source's call; ? = inconclusive; . = not tested or not shown.

SMILES,Beta2AR agonist,Vif A3G,ALR H2O2 inh,LANA-H2B inh,HNF4A DNA FP,RanGTP-Imp inh,Calb FLC
O=C(O)CCn1[nH]c(=O)ccc1=O,-10,?,-3,-0.5,0.9,1.8,-2
CCOC(=O)C1=NNC(C(=O)OCC)C1C(=O)OCC (centres undefined),6,-7%,.,.,3.3,.,.
O=C(Cn1nnc(-c2ccccc2NC(=O)c2ccco2)n1)Nc1ccccc1,-8,9%,-2,-1.8,-1.4,0.8,1
Cc1cccc(NC(=O)CN2CCN(C(=O)c3cccc(-n4cnnn4)c3)CC2)c1C,5,.,-6,1.9,1.8,.,.
CCN(CC)CCCNC(=O)CSc1nc(C)cc(C)n1,13,.,-2,1.2,-1.9,-0.7,-16
Cc1csc(NC(=O)CSc2nc(C(C)C)nc3ccccc23)n1,-2,.,.,-0.4,-0.3,0.2,-25
O=C(Nc1cccnc1)c1ccc(N2CCOCC2)c([N+](=O)[O-])c1,-3,.,11,0.7,3.2,-2.3,21
CCOc1cc(CN2CCN(Cc3ccc(C)o3)C(CCO)C2)ccc1OC (centres undefined),0,4%,-7,0.0,-4.4,4.6,?
Cc1ccc(CSCC(=O)Nc2ccc3c(c2)OCO3)cc1,14,4%,.,1.5,3.4,-0.7,-8
CCOc1ccc2nc(NC(=O)C(CC)Sc3nc(C)cc(=O)[nH]3)sc2c1 (centres undefined),5,5%,15,0.0,1.5,0.0,19
CCOc1ccc(NC(=O)CSc2nc3ccsc3c(=O)n2CCC(=O)O)cc1,15,-6%,95*,3.6,0.6,1.6,-8
Cc1cccc(NC(=O)Cn2c(=O)n(CCc3c[nH]c4ccccc34)c(=O)c3cccnc32)c1,.,-2%,-12,-6.1,.,-0.4,-1

Next part
SMILES,Beta2AR agonist,Vif A3G,ALR H2O2 inh,LANA-H2B inh,HNF4A DNA FP,RanGTP-Imp inh,Calb FLC
Cc1ccc(-c2nc3ncccc3o2)cc1NC(=O)C(C)C,-13,.,-24,2.5,5.9,-2.0,-3
Oc1c(Cl)cc(Cl)cc1C(C#Cc1ccccc1)N1CCOCC1 (centres undefined),0,?,5,7.3,-1.5,-9.7,2
CSc1nc(NC(C)C)nc(N2CCOCC2)n1,-3,-4%,1,1.1,2.6,1.2,-1
Cc1cc(=O)oc(C)c1C(=O)NC1CCCCCCC1,-21,19%,-4,-4.9,-2.9,5.2,-3
Cc1nc(OCc2ccccc2)c2sc3nc4c(cc3c2n1)COC(C)(C)C4,-2,-28%,.,.,-2.3,0.6,-7
CC1(C)CC(=O)C(C=NCCC2=CCCCC2)=C(O)C1,3,0%,0,2.4,-1.3,1.8,-19
O=C(O)c1cccc2c(-c3ccccc3)c(-c3ccccc3)[nH]c12,18,18%,98*,-2.7,-3.1,-2.3,30
CCOC(=O)c1c(NC(=O)c2cc(-c3ccc(Cl)s3)nc3ccccc23)sc(C(N)=O)c1C,-2,.,-47,1.8,-4.2,-3.1,-6
O=C(OCc1cccc2ccccc12)C1CC(=O)N(c2ccccc2)C1 (centres undefined),1,-2%,-17,4.4,1.4,1.1,5
COc1cccc(OC)c1C(=O)Nc1ccc(C(=O)c2ccncc2)cc1,-1,0%,-7,-6.7,-2.2,-0.1,-1
Cc1ccc(S(=O)(=O)N2CCCCC2)cc1NC(=O)CNCc1ccco1,3,.,-8,1.5,3.1,6.2,6
Cc1cc(C)cc(-n2ccnc2SCC(=O)c2c(N)n(C3CC3)c(=O)[nH]c2=O)c1,5,-6%,3,-3.2,1.1,.,.

The results go on:
SMILES,Beta2AR agonist,Vif A3G,ALR H2O2 inh,LANA-H2B inh,HNF4A DNA FP,RanGTP-Imp inh,Calb FLC
COc1ccc(/C=N/Nc2nccnc2Cl)c(OC)c1,9,2%,52,-4.5,0.6,-1.3,-11
CC(=O)c1sc(Nc2nc3cc4c(cc3s2)OCO4)nc1C,-4,.,.,.,5.0,?,?
Cc1ccccc1NC(=S)N1CCC(NC(=O)c2ccco2)CC1,19,26%,-6,-1.9,3.0,.,-21
Cc1cc(C)n(C(=O)CSc2nc3ccccc3o2)n1,3,15%,-1,0.0,1.4,1.8,17
NC(=O)C(c1ccc(Br)cc1)c1ccc(C(=O)c2ccccc2)cc1 (centres undefined),-1,-1%,-4,-2.2,-1.3,2.2,17
Cc1cnc(C(=O)Nc2ccc(F)cc2)cn1,-1,1%,-10,1.6,3.2,3.9,1
Cc1ccc(Cl)cc1NS(=O)(=O)c1ccc2oc(=O)ccc2c1,-15,.,-14,1.6,2.7,-1.8,23
O=C(Cc1ccc(S(=O)(=O)N2CCOCC2)s1)NCC(=O)Nc1ccccc1Br,2,.,3,6.8,-0.8,-2.3,.
Clc1cccc(NCc2cn3cccnc3n2)c1,-7,?,74,6.5,-6.0,0.2,-4
COc1ccc(NC(=O)Nc2nnc(C(C)C)s2)cc1,1,15%,-6,1.6,0.1,-0.2,-24
COc1ccc(N2CCN(C(=O)CSc3nnc(CNc4ccccc4)o3)CC2)cc1,-2,?,.,7.6,4.7,3.7,?
O=C(COc1cccc2cccnc12)N1CCc2ccccc2C1,16,76%,-14,-0.8,-2.4,-0.8,9

(listing goes on)
SMILES,Beta2AR agonist,Vif A3G,ALR H2O2 inh,LANA-H2B inh,HNF4A DNA FP,RanGTP-Imp inh,Calb FLC
Cc1cc(NC(=O)C2CCN(S(=O)(=O)c3cccs3)CC2)no1,-1,?,.,0.3,0.3,10,0
O=C(COc1ccccc1F)Nc1ccc(N2CCOCC2)cc1N1CCOCC1,3,8%,.,.,-0.5,.,.
CC1=C(C(=O)N2CCOCC2)C(c2ccc(-c3ccccc3)cc2)NC(=S)N1 (centres undefined),-3,7%,-4,4.4,-0.3,-2.4,46
COc1cccc(N2C(=O)C3C(C2=O)C3(c2ccccc2)c2ccccc2)c1 (centres undefined),14,.,-4,-1.7,2.5,6.3,-8
COc1cccc(/C=N/NC(=O)c2ccc3nc[nH]c3c2)c1O,-4,-4%,38,-1.6,-1.9,6.0,-3
Cc1cc(C)nc(/N=C(\N)Nc2ccc(-c3ccccc3)cc2)n1,-13,?,64,2.8,4.5,0.1,-2
CC(=O)Oc1ccccc1-c1nc(C)nc(N(C)C(C)=O)n1,-1,3%,6,44*,-0.1,-3.1,1
COc1ccccc1NS(=O)(=O)c1ccc(NC(=O)c2nc3ncccn3n2)cc1,4,1%,.,.,1.8,1.9,2
CN(c1ccccc1)S(=O)(=O)c1ccc(C(=O)Nc2ccncc2)cc1,4,-7%,-6,0.2,1.4,-1.6,3
COc1ccc(-c2cc(C(=O)Nc3ccc(S(=O)(=O)Nc4ncccn4)cc3)c3ccccc3n2)cc1,19,2%,-4,8.9,-0.4,0.0,?
COC(=O)CSc1nnc(Cc2ccccc2)n1-c1ccc(C)cc1,15,-6%,-2,2.5,-2.9,2.4,0
O=C(Cc1ccc(Br)cc1)NC1CCCc2ccccc21 (centres undefined),-3,.,4,-2.6,0.7,-2.9,9

(continued)
SMILES,Beta2AR agonist,Vif A3G,ALR H2O2 inh,LANA-H2B inh,HNF4A DNA FP,RanGTP-Imp inh,Calb FLC
O=C(CN(Cc1ccco1)C(=O)Cn1nnc(-c2cccs2)n1)NCc1ccccc1,-6,1%,-2,0.7,1.8,2.5,-6
O=C(NC1CCCCC1)C1CCN(S(=O)(=O)c2cccc3nonc23)CC1,4,-10%,-18,3.9,2.4,?,-1
COc1cccc(CNC(=O)CCC2CCCN(C(=O)CCn3cncn3)C2)c1 (centres undefined),2,6%,.,.,1.2,-1.0,-2
Cc1ccc(-c2noc(CN(C(=O)c3cccs3)C(C)C)n2)cc1,7,-1%,-3,-3.3,-1.2,0.0,-12
Cc1ccc(S(=O)(=O)NCC(C)NS(C)(=O)=O)cc1 (centres undefined),-8,0%,-4,-2.5,0.4,1.7,0
CCOc1ccc(C(C(=O)NC2CCCC2)N(C(=O)CNC(=O)c2ccco2)c2cccnc2)cc1 (centres undefined),-10,-10%,.,7.6,2.4,1.5,-16
CCCC(=O)Nc1cc(OC)c(NC(=S)Nc2ccc(CC)cc2)cc1OC,-5,-3%,.,.,-1.6,.,.
CCOC(=O)c1ccc(NC(=O)NNC(=O)CCc2ccc(OC)cc2)cc1,-21,-3%,-18,1.3,-1.2,8.1,1
CCCN(Cc1ccccc1)C(=S)Nc1ccc(F)cc1,0,-10%,-1,1.8,2.5,0.2,10
O=C(NCc1ccc(F)cc1)c1ccc2c(c1)S(=O)(=O)c1ccccc1C2=O,-4,.,.,-0.1,0.9,-6.4,17
CC(C)Oc1nnnn1-c1ccccc1,-3,15%,-4,1.7,1.8,4.0,0
O=c1c2ccccc2oc2cc(NCCCN3CCOCC3)ccc12,2,.,4,5.5,-5.6,46*,-29

(cont.)
SMILES,Beta2AR agonist,Vif A3G,ALR H2O2 inh,LANA-H2B inh,HNF4A DNA FP,RanGTP-Imp inh,Calb FLC
CC(C)C(=O)Nc1nc2cc3c(cc2s1)OCCO3,-4,-5%,-41,-8.6,4.1,-0.1,0
O=C(Nc1cccc([N+](=O)[O-])c1)N1CCCCCC1,-5,.,-2,-0.5,3.2,6.1,3
COc1ccc(C)cc1NC(=O)NCc1ccco1,-2,26%,-6,1.5,5.5,-2.4,16
Cc1oc2c(CN3CCOCC3)c(O)ccc2c(=O)c1-c1ccc(Cl)cc1,-16,-9%,-1,4.5,1.9,2.9,13
COc1ccc(CN2C[C@]3(CO)O[C@@H](CO)C[C@@H]3S2(=O)=O)cc1,3,-4%,.,.,-2.8,.,.
CCOc1ccc(C2CC(c3ccc(CC)cc3)n3nc(N)nc3N2)cc1 (centres undefined),-4,18%,-13,-9.4,-3.5,2.0,11
CCCS(=O)(=O)Nc1cc(C(F)(F)F)ccc1OCCOC,1,4%,2,-11,0.1,-3.5,-27
CCOC(=O)C1CCN(S(=O)(=O)c2cccc(-c3csc(C)n3)c2)CC1,10,-1%,99*,2.0,-3.2,?,0
O=C(N[C@H]1C/C=C\C[C@@H](CC(=O)N(CCO)Cc2ccccc2)C(=O)N[C@H](Cc2c[nH]c3ccccc23)COC1=O)OCC1c2ccccc2-c2ccccc21,10,.,3,-3.8,3.9,.,.
Cc1ccc(S(=O)(=O)N(C)C)cc1NC(=O)c1cc(=O)c2ccccc2o1,-10,5%,-11,1.4,1.4,-4.3,0
CCOC(=O)C1=C(CBr)NC(=O)NC1C (centres undefined),-3,?,-1,0.9,-0.6,3.1,0
O=C(Nc1ccc2nc(-c3cccnc3)[nH]c2c1)C1CCCCC1,5,3%,2,3.0,-4.7,0.4,5

Other structures.
SMILES,Beta2AR agonist,Vif A3G,ALR H2O2 inh,LANA-H2B inh,HNF4A DNA FP,RanGTP-Imp inh,Calb FLC
CCCC(CCC)C(=O)Nc1cccc(C(=O)O)c1,3,2%,.,-3.4,1.6,0.4,-12
CCN(CC)S(=O)(=O)c1ccc(/C=C/C(=O)OCC(=O)Nc2ccc(S(N)(=O)=O)cc2)cc1,-1,.,5,-3.7,2.6,1.3,-2
COc1ccc(C2C3=C(CCCC3=O)Nc3nc(C(F)(F)F)nn32)cc1OC (centres undefined),-8,?,0,7.2,-1.1,9.6,-8
CCOc1ccccc1N1CCN(C(=O)c2ccc(Cl)c(S(=O)(=O)N3CCCCC3)c2)CC1,12,-3%,.,.,0.4,.,.
Cc1ccc(OCC(=O)NCC(=O)Nc2ccc(F)cc2)c([N+](=O)[O-])n1,-11,22%,-4,2.3,0.2,1.5,26
Cc1ccccc1OCC(=O)Nc1ccc(C(N)=O)cc1,-2,-3%,-20,1.9,3.3,-2.0,-2
COc1ccc(CNC(=O)c2nnn(-c3cccc(C(F)(F)F)c3)c2N)cc1,-5,?,6,-1.5,0.3,0.1,-1
COC(=O)[C@]1(C)N[C@H](CN(C)S(=O)(=O)c2ccc(OC(F)(F)F)cc2)[C@@H]2C(=O)N(Cc3ccccc3)C(=O)[C@@H]21,-9,0%,.,.,0.3,.,.
Cc1ccccc1NC(=O)CCc1c(C)nn(-c2ccc(N3CCOCC3)nn2)c1C,0,.,-3,-0.8,-2.2,-1.5,-3

Source: PubChem (several laboratories)
